# AID923 – qHTS Assay for Allosteric/Competitive Inhibitors of Caspase-1: Spectroscopic Profiling in AFC Spectral Region; Potency, µM (series often up to 57.5 µM), inactives show top-dose fluorescence increase, actives largely listed as activators; compound fluorescence, AFC spectral region (405/520 nm); almost no hit is shown here; 75,000 tested, 1.1% active; AID 923, 2007; active = well fitted activation curve with a large enough effect;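 also: 0% is about no effect; scaled to a free AFC standard on each plate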
#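 Compound autofluorescence profiled at 405 nm ex/520 nm em during kinetic caspase 1 run (50 nM enzyme, 5 uM Ac-WEHD-AFC, HEPES pH 7.5, 10 mM DTT). Titration up to 57 uM; baseline from regression intercept, normalized to AFC standard curve.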
# * hit, by the source's call; & = joins results of further samples. Potency is read from the fitted curve at half-maximal effect. An excerpt. The share of hits here may be higher or lower than overall.
SMILES,AID923
CCC(=O)Nc1ccc(S(=O)(=O)N2CCc3ccccc3C2)cc1,-1.6%
Cc1ccc2cc(CCNS(=O)(=O)c3ccc(F)cc3)c(=O)[nH]c2c1,-3.0%
CCC1=C(OC(=O)N(CC)CC)N2C(=O)OC(=NCCc3c[nH]c4ccccc34)[C@]2(C)[C@H]2C1=CC[C@H]1C(=O)N(C)C(=O)[C@H]12,1.3%
CC(=O)Nc1ccc(-c2nc3ccc(Cl)cc3[nH]2)cc1,-1.9%
CC(C)CC1NC(=O)C(CCCN)NC(=O)C(C(C)C)NC(=O)C2CCCN2C(=O)C(Cc2ccccc2)NC(=O)C(CC(C)C)NC(=O)C(CCCN)NC(=O)C(C(C)C)NC(=O)C2CCCN2C(=O)C(Cc2ccccc2)NC1=O (stereo not drawn),-1.6%
CC(=O)OC1CC2C(C)(C)CCC(=O)[C@@]2(C)C2CC[C@@]3(C)C(c4ccoc4)OC(=O)C4OC43[C@]12C (stereo partly drawn),0.9%
OCCN1CCN(CCCN2c3ccccc3C=Cc3ccccc32)CC1,-2.7%&0.7%
CCOC(=O)N1CCN(C(=O)c2oc(=O)c3ccccc3c2-c2ccc(C)cc2)CC1,2.6%
CC(=O)OC1CC[C@@]2(C)C3=CC(=O)[C@]4(C)C(CC5OC6(OCC(C)CC6Br)C(C)C54)C3CC[C@H]2C1 (stereo partly drawn),-3.3%
COc1c2ccoc2c(OC)c2oc(=O)ccc12,-1.9%
[N-]=[N+]=NCC1OC(n2cnc3c(=O)[nH]c(N)nc32)C(O)C1O (stereo not drawn),-1.4%
CC1=CC(=O)[C@@H]2C[C@H]1C2(C)C,2.5%
COc1ccc(-n2ncc3c(NCc4ccc5c(c4)OCO5)ncnc32)cc1,0.1%
COc1cccc(C2NC(=O)NC(C)=C2C(=O)Nc2ccc(C)cc2)c1OC (stereo not drawn),-0.1%
O=C1NS(=O)(=O)c2ccccc21,-0.1%
Cc1ccccc1-c1nc(CS(=O)(=O)CC(=O)N2CCc3ccccc3C2)c(C)o1,0.5%
Nc1ccc(-c2nc3ccc(-c4nc5ccc(N)cc5[nH]4)cc3[nH]2)cc1,-2.8%
COc1cc(O)cc(/C=C/c2ccccc2)c1,-0.9%
COc1ccccc1N(CC(=O)N1CCCCCC1)S(C)(=O)=O,1.5%
O=C(O)COc1ccc2c(c1)CCCC2,-1.6%
Cn1c(=O)c(C(=O)COC(=O)c2cc(-c3ccco3)nc3ccccc23)c(N)n(Cc2ccccc2)c1=O,4.9%
Cn1c(N)c(C(=O)COC(=O)c2cc(-c3ccccc3)nc3ccccc23)c(=O)n(C)c1=O,2.0%
CCCCCC1C(=O)CCC1CC(=O)O (stereo not drawn),-1.2%
OCC1OC(Oc2cccc3cccnc23)C(O)C(O)C1O (stereo not drawn),-1.4%
CCCCCCCCCCCC(CC1OC(=O)C1CCCCCC)OC(=O)C(CC(C)C)NC=O (stereo not drawn),-2.3%
CC1(C)OC2C(CO)OC(n3cnc4c(=O)[nH]cnc43)C2O1 (stereo not drawn),0.7%
C=CCOC(=O)C1CC=CCC1C(=O)Oc1ccc(F)cc1F (stereo not drawn),-0.6%
CCOC(=O)c1c(NC(=O)CN(CC)CC)sc2c1CCC2,0.3%
C[n+]1cccc(C(=O)[O-])c1,-0.6%
CCC(=NC1CC(C)(C)NC(C)(C)C1)C1=C(O)CC(C)(C)CC1=O,2.2%
Cn1c(C(=O)NCCN2CCCCCC2)cc2c(=O)n(C)c3ccccc3c21,0.0%
CCC1=C2CC[C@H]3C(=O)N(CC(=O)OC)C(=O)[C@H]3[C@H]2[C@@]2(C)C(=O)N(CC3CC3)C(=O)N2C1=O,0.6%
CCCCOCCCNS(=O)(=O)c1ccccc1,0.3%
CCCCN1CCCCC1C(=O)Nc1c(C)cccc1C (stereo not drawn),-1.8%
C=C1C([C@@]2(C)C(OC(C)=O)CC(=O)O[C@@](C)(COC(C)=O)C2CC(=O)OC)C(OC=O)C(OC(=O)C(O)C(C)CC)[C@]2(C)C(c3ccoc3)CC(=O)C12O (stereo partly drawn),-0.3%
O=C(c1ccccc1)C(Sc1ncn[nH]1)c1ccccc1 (stereo not drawn),-1.3%
CC12CCC3C(CC3(C)C)C(C)(CCC1=O)O2 (stereo not drawn),0.3%
FC(F)(F)c1ccc(C2[C@H]3CN(CC4CCCCC4)[C@H](c4ccccc4)C34CC2(c2ccccc2)C4)cc1 (stereo partly drawn),3.8%
O=C(O)c1cn(-c2ccc(F)cc2)c2cc(N3CCNCC3)c(F)cc2c1=O,0.2%
COc1cc2c3cc1Oc1cc(ccc1O)CC1c4c(cc(OC)c(O)c4Oc4ccc(cc4)CC3N(C)CC2)CC[N+]1(C)C (stereo not drawn),-1.8%
COC(=O)CC1C(C)(C)C(OC(C)=O)C2CC3=C4CC(=O)OC(c5ccoc5)[C@]4(C)CCC3[C@@]1(C)C2=O (stereo partly drawn),-1.6%
CCC(C)C(=O)OC1CC(C)C=C2C=CC(C)C(CCC3CC(O)CC(=O)O3)C21 (stereo not drawn),-3.3%
CCOC(=O)CON1C(=O)C(C)(C)N(OCC(=O)OCC)C(=O)C1(C)C,0.7%
CN1C[C@@H]2C(c3ccccc3)C3(c4ccccc4)CC2(C3)[C@H]1c1ccccc1 (stereo partly drawn),-3.0%
O=C(O)COCCN1CCN(C(c2ccccc2)c2ccc(Cl)cc2)CC1 (stereo not drawn),0.4%

# Structures listed so far with a Cl atom, in the order listed:
SMILES,AID923
CC(=O)Nc1ccc(-c2nc3ccc(Cl)cc3[nH]2)cc1,-1.9%
O=C(O)COCCN1CCN(C(c2ccccc2)c2ccc(Cl)cc2)CC1 (stereo not drawn),0.4%

# The list goes on:
SMILES,AID923
Nc1cc(=O)[nH]c(=O)n1CC1CC1,-1.8%
CC(C)N(CCc1ccncc1)C(=O)Nc1ccc(Cl)c(Cl)c1,-0.5%
CCN(CC)CCOC(=O)C(Cc1cccc2ccccc12)CC1CCCO1 (stereo not drawn),0.8%
Cn1nnnc1SCC1=C(C(=O)O)N2C(=O)C(NC(=O)C(O)c3ccccc3)C2SC1 (stereo not drawn),0.1%
CC(=O)C1=C(C)NC(SCSc2ccccc2)=C(C#N)C1c1cccnc1 (stereo not drawn),17%
CCN=C1SC(CC(=O)Nc2ccc(N3CCOCC3)cc2)C(=O)N1CC (stereo not drawn),0.9%
COC(=O)[C@@H]1C[C@@]2(O)[C@H](O)[C@H](O)[C@H](O)C[C@H]2N1CC(c1ccccc1)c1ccccc1,1.8%
CO[C@@]1(NC(=O)Cc2cccs2)C(=O)N2C(C(=O)O)=C(COC(N)=O)CSC21 (stereo partly drawn),1.4%
O=C(NC12CC3CC(CC(C3)C1)C2)c1cccnc1,0.4%
COc1ccc(C)cc1NC(=O)CN1CCN(S(=O)(=O)c2ccc(Br)cc2)CC1,-0.7%
Cc1c(S(=O)(=O)O)oc2c1C(=O)C(=O)c1c-2ccc2c1CCCC2(C)C,-2.6%
C#CCCCCCCCCCCCc1ccco1,0.4%
NC(=O)c1ccc[n+]([C@@H]2OC(COP(=O)([O-])OP(=O)(O)OCC3OC(n4cnc5c(N)ncnc54)C(OP(=O)(O)O)C3O)C(O)C2O)c1 (stereo partly drawn),2.2%
C=C1C(C2(C)C=CC(=O)C(C)(C)C2CC(=O)OC)CC[C@@]2(C)C(c3ccoc3)OC(=O)C3OC132 (stereo partly drawn),0.8%
COc1ccc2c(c1OC)OCC(c1ccc(OC)c(OC)c1OC)C2 (stereo not drawn),-2.6%
CC1SC(c2cccc(Cl)c2)NC1=O (stereo not drawn),3.0%
CCCCOc1ccccc1NC(=O)CC1SC(=NCC)N(CC)C1=O (stereo not drawn),-1.5%
CO[C@]1(NC(=O)C(C(=O)O)c2ccc(O)cc2)C(=O)N2C(C(=O)O)=C(CSc3nnnn3C)COC21 (stereo partly drawn),-0.3%
CC(C)C1COc2cc3oc(=O)ccc3cc2O1 (stereo not drawn),-1.2%
O=c1cccc(-c2ccc(Br)cc2)o1,-0.4%
CC1(C)CC2C1CC[C@]1(C)CCC3C(C(=O)O)CC(=O)O[C@]32C1 (stereo partly drawn),0.3%
CCn1c2ccccc2c2cc(Nc3cc(C)nc4ncnn34)ccc21,-5.6%
O=c1c(-c2cc(O)c(O)c(O)c2)coc2cc(O)c(O)c(O)c12,-1.3%
CO/N=C(/C(=O)N[C@H]1C(=O)N2C(C(=O)O)=C(COC(C)=O)CSC12)c1csc(N)n1 (stereo partly drawn),3.4%
COc1ccc(N(CC(=O)Nc2ccc3c(c2)OCO3)S(=O)(=O)c2ccccc2)c(OC)c1,1.1%
CC(=O)O[C@]1(C)CC[C@]23CC1C(C)(C)C2CC[C@@H]3C (stereo partly drawn),-2.8%
CC1=C(C(=O)O)N2C(=O)C(NC(=O)C(N)C3=CCC=CC3)C2SC1 (stereo not drawn),3.4%
CC1CC[C@@]2(OC1)OC1CC3C4CC[C@H]5CC(O)CC[C@@]5(C)C4CC[C@]3(C)C1C2C (stereo partly drawn),1.0%
CC1CCC(C(C)(C)O)CC2=C1CCC2C (stereo not drawn),-0.4%
O=c1c(-c2ccccc2)coc2cc(O)cc(O)c12,-3.7%
O=C(NCc1ccccc1)[C@H]1C[C@@H]1[C@H](NP(=O)(c1ccccc1)c1ccccc1)c1ccccc1,0.7%
CCOC(=O)c1ccc(N2C(=O)CC(N3CCN(Cc4ccccc4)CC3)C2=O)cc1 (stereo not drawn),3.0%
CC(=O)OC1CC2C(C)(C)C(=O)CC[C@]2(C)C2CC[C@@]3(C)C(c4ccoc4)OC(=O)C4OC43[C@]12C (stereo partly drawn),0.6%
O=C(NC(Cc1cc(=O)[nH]c2ccccc12)C(=O)O)c1ccc(Cl)cc1 (stereo not drawn),0.2%
CCCc1cc(=O)[nH]c(SCCOc2ccc(Cl)cc2)n1,-3.7%
O=C1c2c(O)cc(O)cc2OC(c2ccc(O)c(O)c2)C1O (stereo not drawn),1.1%
OCC(O)C(O)C(O)CO (stereo not drawn),-0.5%&-2.3%
CCC(C(=O)O)c1ccccc1 (stereo not drawn),1.1%
Cc1cc2ncn(C(=O)c3c(-c4ccccc4)noc3C)c2cc1C,-0.7%
O=C1C(CCC(O)c2ccc(F)cc2)C(c2ccc(O)cc2)N1c1ccc(F)cc1 (stereo not drawn),-1.5%
O=C(CCSc1ccccc1)NC1CCCC1,2.3%
CC1(C)CC2C1CCC1(C)OC1CCC2(C)O (stereo not drawn),0.3%
CN1CC(=O)N=C1N,-0.1%
CC(=O)OC1C(=O)[C@@]2(C)C(O)CC3OC[C@]3(OC(C)=O)C2C(OC(=O)c2ccccc2)[C@]2(O)CC(OC(=O)C(O)C(NC(=O)c3ccccc3)c3ccccc3)C(C)=C1C2(C)C (stereo partly drawn),-2.5%
O=C(O)C1=C[C@@H](O)[C@@H](O)[C@H](O)C1,0.3%
COc1ccc(C2OCC3(COC(C)=O)C(C)C=C(C)C2C3C)cc1 (stereo not drawn),1.7%
Nc1nc2ncc(=O)[nH]c2c(=O)[nH]1,5.8%
COc1cc(C)c2c(c1C=O)Oc1c(c(C)c(O)c3c1C(O)OC3=O)OC2=O (stereo not drawn),-1.4%
O=C1C=C(O)c2ccccc2C1=O,-0.2%
COc1cc(/C=C/C(=O)N2CCC=CC2=O)cc(OC)c1OC,-2.5%
CC(=O)c1c(O)cc(O)cc1O,1.1%
CCN(CC)C(=O)Cn1c(=O)n(-c2ccccc2)c(=O)n1CC(=O)N(CC)CC,1.1%
CC(C)(C)c1nc(CN2CCCCC2)cc(CN2CCCCC2)c1O,-0.5%
COC1=C(OC)C(=O)C(C/C=C(\C)CC/C=C(\C)CC/C=C(\C)CC/C=C(/C)CC/C=C(\C)CC/C=C(\C)CC/C=C(\C)CC/C=C(\C)CC/C=C(\C)CCC=C(C)C)=C(C)C1=O,-1.4%
CCc1c(C)[nH]c2c1C(=O)C(CN1CCOCC1)CC2 (stereo not drawn),-2.1%
CC(=O)OCC(=O)[C@@]1(O)CCC2C3CCC4=CC(=O)CC[C@@]4(C)[C@]3(F)C(O)C[C@]21C (stereo partly drawn),-0.2%
C[C@]12CCC(=O)C=C1CCC1C2C(O)C[C@]2(C)C1CC[C@]2(O)C(=O)CO (stereo partly drawn),-1.1%
COc1ccc(CC(=O)N2CC3(C)CC2CC(C)(C)C3)cc1OC (stereo not drawn),-0.4%
COc1ccc(C(=O)/C=C(\N)C(F)(F)F)c(O)c1,1.0%
O=C(Nc1ccc(F)cc1)C1CCC(N2C(=O)c3ccccc3C2=O)CC1 (stereo not drawn),-0.6%
CCC1=C2CC[C@H]3C(=O)N(c4ccccc4)C(=O)[C@H]3[C@H]2[C@@]2(Cc3ccccc3)C(=O)N(CC(=O)OC)C(=O)N2C1=O,-1.1%
O=C(Oc1cc(OC(=O)c2ccccc2)c2c(c1)OC(c1ccc(OC(=O)c3ccccc3)c(OC(=O)c3ccccc3)c1)[C@@H](OC(=O)c1ccccc1)C2)c1ccccc1 (stereo partly drawn),0.2%

# Reformatted as tab-separated lines: entries from further up
molecule	AID923
COc1ccc(C2OCC3(COC(C)=O)C(C)C=C(C)C2C3C)cc1 (stereo not drawn)	1.7%
Nc1nc2ncc(=O)[nH]c2c(=O)[nH]1	5.8%
COc1cc(C)c2c(c1C=O)Oc1c(c(C)c(O)c3c1C(O)OC3=O)OC2=O (stereo not drawn)	-1.4%
O=C1C=C(O)c2ccccc2C1=O	-0.2%

# In the list so far, these have two or more sulfur atoms:
SMILES,AID923
Cn1nnnc1SCC1=C(C(=O)O)N2C(=O)C(NC(=O)C(O)c3ccccc3)C2SC1 (stereo not drawn),0.1%
CC(=O)C1=C(C)NC(SCSc2ccccc2)=C(C#N)C1c1cccnc1 (stereo not drawn),17%
CO[C@@]1(NC(=O)Cc2cccs2)C(=O)N2C(C(=O)O)=C(COC(N)=O)CSC21 (stereo partly drawn),1.4%
CO/N=C(/C(=O)N[C@H]1C(=O)N2C(C(=O)O)=C(COC(C)=O)CSC12)c1csc(N)n1 (stereo partly drawn),3.4%
